Mtb growth = M. tuberculosis H37Rv growth inhibitors, H37Rv strain (AID 1626); M. tuberculosis H37Rv growth inhibition; higher % means a stronger effect; inhibition, % at 10 µM; hits with a dose series show IC50 in µM; 0.95% of 220,000 active;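 active = confirmed in a dose series; inconclusive = inhibition above 80% but not taken into the dose series; inactive = below 80% or under 30% at every dose of the series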;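 also: bacteria incubated seven days before Alamar blue readout; 0% = bacteria only wells and 100% = bacteria with antibiotic wells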
Arbovirus inh = antivirals against arbovirus infection, primary screen, cell-based, full library, 10K replicate subset; 0.37% of 200,000 active; inhibition, % at 10 µM; arbovirus infection cell-based antiviral screen;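 active = inhibition from about 30%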;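 also: bluetongue infection of BSR cells; cell survival read as ATP light after 72 h; 0% = infected wells without compound and 100% = uninfected wells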
YopH inh = YopH tyrosine phosphatase inhibitors, primary screen, biochemical, fluorescence Ex485/Em525; YopH tyrosine phosphatase [Yersinia enterocolitica]; inhibition, %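 (about 10 µM by stock and volumes)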; 0.16% of 140,000 active;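 active = inhibition of 50% or more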;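 also: controls were vehicle for no effect and minimum signal wells for full effect; inactives centre near -20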
RecA splice inh = Mtb RecA intein splicing inhibitors, primary screen, biochemical, fluorescence, HTS; Protein RecA (Mycobacterium tuberculosis (strain ATCC 25618 / H37Rv)), P9WHJ3; cell-free RecA intein splicing; inhibition, %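 (about 9 µM by stock and volumes)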; 0.75% of 290,000 active; AID 2221, 2009; in the data active = inhibition above about 30%; inconclusive = no clear call, values can overlap the other calls;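 also: 0% = vehicle wells and 100% = reference inhibitor control wells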
Target sequence (P9WHJ3 whole entry, looked up, canonical isoform): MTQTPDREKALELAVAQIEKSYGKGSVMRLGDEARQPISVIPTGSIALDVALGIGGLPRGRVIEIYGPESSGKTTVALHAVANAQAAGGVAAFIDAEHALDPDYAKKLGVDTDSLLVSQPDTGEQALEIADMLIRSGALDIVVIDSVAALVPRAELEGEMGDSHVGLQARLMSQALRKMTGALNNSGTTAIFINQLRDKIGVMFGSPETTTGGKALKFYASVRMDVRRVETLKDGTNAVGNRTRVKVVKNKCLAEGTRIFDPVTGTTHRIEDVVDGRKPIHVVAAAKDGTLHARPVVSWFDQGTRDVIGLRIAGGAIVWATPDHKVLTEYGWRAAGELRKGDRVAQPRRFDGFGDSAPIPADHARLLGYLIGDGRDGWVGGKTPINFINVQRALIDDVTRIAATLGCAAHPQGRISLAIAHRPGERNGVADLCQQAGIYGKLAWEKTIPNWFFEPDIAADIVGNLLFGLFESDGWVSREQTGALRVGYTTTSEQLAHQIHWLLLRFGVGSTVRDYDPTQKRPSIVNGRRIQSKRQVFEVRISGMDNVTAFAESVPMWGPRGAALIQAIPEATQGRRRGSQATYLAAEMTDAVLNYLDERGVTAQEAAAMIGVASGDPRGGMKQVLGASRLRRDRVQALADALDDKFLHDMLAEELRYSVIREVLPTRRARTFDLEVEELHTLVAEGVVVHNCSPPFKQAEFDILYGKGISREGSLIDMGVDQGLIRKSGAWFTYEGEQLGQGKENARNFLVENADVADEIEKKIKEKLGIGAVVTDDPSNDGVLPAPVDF
Mtb betalactam = beta-lactam sensitization of Mtb H37Rv, H37Rv. M. tuberculosis H37Rv growth with meropenem, percent inhibition; hits of this screen are not shown here. inhibition, % at 25 µM. 0.27% of 330,000 active;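 active = about 74% or more and at least 40 points above the plate without the antibiotic, then above 30% in a dose series; inconclusive = first-round hits that could not be retested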;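 also: growth measured after seven days incubation then overnight dye step; 0% = bacteria only wells and 100% = bacteria with antibiotic; twin plates without the antibiotic show which effects depend on it; some results filed as inactive read as strong as hits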
Arbovirus inh repeat = recorded beside Arbovirus inh, whose call it bears; inhibition, %; measured here: 10K subset replicate screen; many hits read low in the repeat;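 first of two repeat runs on a subset; 0% = infected and 100% = uninfected wells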
An asterisk follows results filed as active; ? = inconclusive; · = not tested or not shown. Some of the compounds tested, so the mix of outcomes need not match the whole.

SMILES	Mtb growth	Arbovirus inh	YopH inh	RecA splice inh	Mtb betalactam	others
Fc1ccc2c(c1)C(c1ccncc1)=NNC(c1cccnc1)=N2	1%	12	-51	0.5	1
COc1ccc(S(=O)(=O)Nc2ccc3c(c2)n(C)c(=O)n3C)cc1F	·	·	·	2.7	0
CC(C)[C@H](NC(=O)[C@@H]1CSC2c3ccccc3C(=O)N21)C(=O)NCC1CCCO1 (stereo not given in full)	·	·	·	-1.9	3
CC1CCN(CCc2nc3cc(NC(=O)C(C)C)ccc3n2C)CC1	·	·	·	-0.6	2
COc1ccc(-n2cnnc2SCCC#N)cc1	-13%	2	-35	-1.8	?
Cc1ccccc1NC(=O)Cc1c(O)c2ccccc2[nH]c1=O	-4%	1	-15	-2.3	-2
C=CCC1(CC=C)CCCN1C(=O)C1CCC(=O)N(CCc2ccccc2)C1 (stereo not given)	·	·	·	-2.6	?
CCOc1ccc(S(=O)(=O)Nc2ccc(S(=O)(=O)N3CCCCC3)cc2)cc1	-10%	13	-28	4.3	1
Cc1csc(=O)n1CC(=O)OCc1nnc(-c2ccccc2)o1	·	·	·	1.2	-5
CCOC(=O)c1cccc(NC(=O)CCc2nnc3ccc(N4CCOCC4)nn23)c1	·	·	·	0.6	-5
COc1ccc(Oc2cccc(Cl)c2CNC(=O)CSCC(=O)O)cc1	-2%	·	·	2.5	0
CCc1nnc(NC(=O)CSc2nnc(-c3ccco3)n2CCOC)s1	-19%	8	·	-0.7	-5
COCCn1c(SCC(=O)/C=C2\N(C)c3ccccc3C2(C)C)nnc1-c1ccncc1	3%	8	-25	0.7	50
Cc1cc2cc(CN(Cc3ccco3)C(=O)C3CCCCC3)c(=O)[nH]c2cc1C	-6%	-2	-51	1.1	0
Nc1nonc1-c1nc2ccccc2n1CC(=O)N/N=C/c1ccc(-c2ccccc2C(=O)O)o1	-3%	-3	·	-0.1	-2
Cc1cc(C)cc(NC(=O)CSc2nc(N)c(NC(=O)c3cccs3)c(=O)[nH]2)c1	4%	1	-33	-2.2	-6
O=C(NCCc1ccccc1)NC1CCCCC1	-4%	-4	-24	1.6	-1
Cc1cc(C)c(C(=O)NNC(=O)c2cccnc2)c(C)c1	·	·	·	-0.7	3
O=C(CN(Cc1ccccc1)S(=O)(=O)c1ccc(S(=O)(=O)N2CCOCC2)cc1)Nc1ccccc1	5%	-4	-18	-0.5	1
CCN(CC)C(=O)COc1cc(C)cc2oc(=O)cc(-c3ccccc3)c12	-3%	-5	8	-2.6	-10
CCCn1cc(S(=O)(=O)c2ccc(OC)cc2)c(=O)c2cc(OCC)ccc21	·	·	·	0.3	?
C#C[C@]1(O)CC[C@H]2[C@@H]3CCC4=CC(=O)CC[C@@H]4[C@H]3CC[C@@]21C	-5%	·	·	2.2	-2
Cc1ccc(F)cc1NC(=O)CSc1ncccn1	7%	8	·	-1.6	0
O=C(c1ccccc1Cl)N1CCNCC1	·	3	-8	-5.2	6
Cc1ccc(-n2c(SCC(=O)NCC3CCCO3)nnc2-c2ccoc2C)cc1 (stereo not given)	-5%	-9	-11	-0.1	-6

The list goes on; it opens with the 4 that closed the last part.
SMILES	Mtb growth	Arbovirus inh	YopH inh	RecA splice inh	Mtb betalactam	others
C#C[C@]1(O)CC[C@H]2[C@@H]3CCC4=CC(=O)CC[C@@H]4[C@H]3CC[C@@]21C	-5%	·	·	2.2	-2
Cc1ccc(F)cc1NC(=O)CSc1ncccn1	7%	8	·	-1.6	0
O=C(c1ccccc1Cl)N1CCNCC1	·	3	-8	-5.2	6
Cc1ccc(-n2c(SCC(=O)NCC3CCCO3)nnc2-c2ccoc2C)cc1 (stereo not given)	-5%	-9	-11	-0.1	-6
OC1NC(=S)N(c2ccccc2)C1O (stereo not given)	5%	·	·	-1.2	-11
Cc1ccc(S(=O)(=O)N(C)CC(=O)Nc2cc(C)ccn2)cc1	·	·	·	-0.6	-11
CNC(=O)c1c[nH]n2c(=O)c(Cc3ccccc3F)c(C)nc12	-3%	0	-16	-2.8	-1	Arbovirus inh repeat=2
Cc1cc(C)n2nc(SCCCC(=O)c3ccc(F)cc3)nc2n1	0%	14	·	-2.6	-15
O=C(CCn1cccc1)Nc1nccs1	-8%	5	-27	-2.1	-4
COC(=O)CSc1cccc2c1C(=O)CC2c1ccccc1 (stereo not given)	·	·	·	4.2	97
COCC(=O)Nc1ccc(S(=O)(=O)NCCc2ccccc2)cc1	4%	2	-18	0.1	2
CCOC(=O)c1c(C)[nH]c(C)c1C(=O)COC(=O)c1nc2nccc(C)n2n1	-7%	-3	·	-0.1	1
CN1CCN(c2ccc(NC(=S)NC(=O)c3cccc4ccccc34)cc2)CC1	·	·	·	-2.4	23
O=C(N/N=C/c1c(Nc2cccc(C(F)(F)F)c2)nc2ccccn2c1=O)c1ccccc1[N+](=O)[O-]	7%	-22	-29	-0.6	-7
COc1ccc(CNC(=O)[C@H](C)NC(=O)C2CCN(S(=O)(=O)c3ccccc3)CC2)cc1	·	·	·	1.5	2
O=C(CN1CCN(S(=O)(=O)c2ccc(F)cc2)CC1)Nc1ccc(Cl)c(C(F)(F)F)c1	·	4	-41	7.6	12
COc1ccccc1S(=O)(=O)Nc1ccc2cn[nH]c2c1	-3%	11	-5	1.3	-6
Cn1c(=O)c2c(nc(SCC(=O)NCc3ccc4c(c3)OCO4)n2Cc2ccccc2)n(C)c1=O	-1%	-6	21	2.7	7
COc1ccc(C(=O)CSc2nnc(C3CCCCC3)n2N)c(OC)c1	70%	-1	-6	3.8	99
Cc1ccc(-c2nc(SCC(=O)NCC3CCCO3)c(-c3ccc(Cl)cc3)[nH]2)cc1 (stereo not given)	4%	-6	-21	5.8	-5
CCOc1ccc(C(CC(=O)O)n2cnnn2)cc1OC (stereo not given)	7%	-4	·	-2.6	-1
Cc1ccccc1CSc1nnnn1-c1ccc(C(N)=O)cc1	·	·	·	-5.4	1
C=CCNC(=S)/N=C/c1c(O)[nH]c(=O)[nH]c1=O	2%	5	·	·	0
Cc1nn(CC(C)C)c(Cl)c1C(=O)O	-1%	9	·	1.8	-2
O=C(NC(=S)Nc1ccccn1)c1ccc(-c2ccccc2)cc1	·	·	·	4.0	86
COc1cc(/C=C2\SC(=O)N(CC(=O)Nc3ccc(C)cc3)C2=O)cc(Cl)c1OCC(=O)O	·	·	·	4.6	7
CCOc1ccc(CN2CCN(Cc3ccsc3)C(CCO)C2)cc1CO (stereo not given)	3%	-1	·	·	-1
COCCOC(=O)c1c(C)n(C)c2ccc(OC(=O)c3ccco3)cc12	-4%	2	8	-0.1	1
COc1ccc(NC(=S)NNC(=S)Nc2cccc(C(F)(F)F)c2)cc1	0%	·	·	-2.6	-12

(further entries)
SMILES	Mtb growth	Arbovirus inh	YopH inh	RecA splice inh	Mtb betalactam	others
Cc1cc(N2C(=O)C(O)=C(C(=O)c3cc4ccccc4o3)C2c2cccc(Br)c2)no1 (stereo not given)	·	·	·	-1.7	14
O=C1NC(=O)N(Cc2ccccc2)C1=O	·	·	·	-1.4	2
O=C(NCCCN1CCOCC1)C(=O)NCc1ccccc1Cl	·	-2	·	0.9	-4
Cc1nn(Cc2ccccc2Cl)c(Cl)c1C(=O)OCC(=O)NCc1ccco1	0%	-6	16	0.4	-4
O=C(NCCCn1ccnc1)C(=O)NCC(c1cccnc1)N1CCN(c2ccccc2)CC1 (stereo not given)	1%	7	-15	-9.8	8
COc1ccccc1C1(CCN=Cc2ccc(N(C)C)cc2)CCOC(C)(C)C1 (stereo not given)	3%	·	·	-0.5	-5
CCOC(=O)c1sc2cc([N+](=O)[O-])cc(SCC(=O)OC)c2c1N	12%	-2	-2	-2.7	89
COc1ccccc1CN1CCC(n2nccc2NC(=O)c2ccccc2Cl)CC1	·	·	·	1.0	-4
C/C(Cn1ncc(N2CCOCC2)c(Cl)c1=O)=N\O	·	·	·	-1.7	-2
C[C@@H](C(O)c1ccccc1)N(C)C(=O)CCc1ccccc1 (stereo not given in full)	·	·	·	1.4	-15
Cc1ccc(NCc2ccccc2OCc2ccccc2F)cc1	13%	-5	18	1.2	5
CC(C)(C)c1ccc(C(=O)NCC(=O)N2CCCC2)cc1	·	·	·	2.6	2
COc1ccc(C(=O)N2CCc3[nH]nc(-c4ccccc4)c3C2)cc1	·	·	·	5.8	0
COC(=O)CC1Oc2ccccc2N(Cc2ccc(C)cc2)C1=O (stereo not given)	6%	-1	-34	3.3	3
COC(C[C@H]1O[C@@H]1[C@H](O)COCc1ccccc1)OC	-14%	·	·	·	2
O=C(Cn1cnc2ccccc2c1=O)Nc1nc2ccccc2s1	-6%	14	·	-1.7	4
CCc1ccc(C(C)NC(=O)/C(C#N)=C\c2cn[nH]c2-c2ccccc2)cc1 (stereo not given)	8%	-30	-12	9.7	4
COc1ccc(NC(=O)COC(=O)c2cc([N+](=O)[O-])ccc2N2CCOCC2)cc1	·	·	·	2.2	-10
O=c1[nH]c(=O)n(C(c2ccccc2)c2ccccc2)cc1Br	-14%	32*	·	-1.5	1
CC1CCCN(c2nc3nonc3nc2N2CCCC(C)C2)C1 (stereo not given)	3%	-5	-7	4.7	-13
Cc1nnsc1C(=O)NC1CCCc2c1cnn2-c1cc(F)cc(F)c1 (stereo not given)	·	·	·	2.4	30
Cc1ccc(S(=O)(=O)N(c2cccc(C(F)(F)F)c2)C2C=CS(=O)(=O)C2)cc1 (stereo not given)	-2%	-1	-19	-0.2	-3
O=c1[nH]c2ccccc2c2nc(-c3cccc(S(=O)(=O)N4CCCC4)c3)nn12	-2%	·	·	1.2	-6
CCC(C)NS(=O)(=O)c1ccc(OCC(=O)NCc2ccco2)cc1 (stereo not given)	-4%	0	-27	-2.0	-5
C/C(=N\OC(=O)c1ccc(F)cc1)c1ccc(F)c(F)c1	0%	·	·	4.5	40

Part of the list above in order of molar mass, smallest number first.
SMILES	Mtb growth	Arbovirus inh	YopH inh	RecA splice inh	Mtb betalactam	others
O=C1NC(=O)N(Cc2ccccc2)C1=O	·	·	·	-1.4	2
CCOc1ccc(C(CC(=O)O)n2cnnn2)cc1OC (stereo not given)	7%	-4	·	-2.6	-1
COCCOC(=O)c1c(C)n(C)c2ccc(OC(=O)c3ccco3)cc12	-4%	2	8	-0.1	1
Cc1nn(Cc2ccccc2Cl)c(Cl)c1C(=O)OCC(=O)NCc1ccco1	0%	-6	16	0.4	-4

Additional compounds:
SMILES	Mtb growth	Arbovirus inh	YopH inh	RecA splice inh	Mtb betalactam	others
Cc1nc(N2CCN(C(=O)c3ccco3)CC2)c2c3c(sc2n1)CCCC3	0%	-4	-7	7.2	88
CC(=O)c1cccc(NC(=O)CN(C)S(=O)(=O)c2ccccc2)c1	-1%	-1	·	-2.6	18
CC1CC2c3cccc(C(=O)O)c3C(=O)N2c2ccc(Cl)cc21 (stereo not given)	-4%	11	·	0.3	1
Cc1nnc(NC(=O)CSc2nc(N)c(NC(=O)c3cccs3)c(=O)[nH]2)s1	-7%	·	·	1.4	-7
Cc1cccc(N2C(=O)C(O)=C(C(=O)c3cccs3)C2c2ccc(F)cc2)n1 (stereo not given)	-1%	-4	·	1.0	-11
CCC(C)NC(=O)C1CC(c2ccc(OC)cc2)=NO1 (stereo not given)	3%	14	-39	-0.8	·
Cc1ccc2sc(C)[n+](CCC(C)S(=O)(=O)[O-])c2c1 (stereo not given)	2%	-7	-41	-5.1	5
CCn1nc(C(=O)Nc2ccc(C)c(C)c2)c(Cl)c1Cl	-1%	7	-37	-2.3	3
CCOc1ccc(C(C)C)cc1S(=O)(=O)n1nc(C)cc1C	3%	-2	-25	0.6	8
CCNc1ccccc1CP(=O)(c1ccccc1)c1ccccc1O (stereo not given)	·	·	·	32*	10
COCCN(CCOC)CC(O)COC(c1ccccc1)c1ccccc1 (stereo not given)	-1%	20	·	1.8	-2
CCN(CC)C(=O)C1CCCN(c2ccc([N+](=O)[O-])cc2/C=N/NC(=O)c2cccc([N+](=O)[O-])c2)C1 (stereo not given)	·	-9	-28	-0.3	75
CN(Cc1ccccc1)CC(O)COc1ccc(CNCCOc2cccnc2)cc1 (stereo not given)	2%	-2	·	-2.3	9
CC1(C)CN(c2ccsc2C(=O)O)C1=O	0%	-1	·	2.2	-6
Cc1nc(CC(=O)c2ccc(O)c(C)c2O)cs1	8%	·	·	2.6	-2
Cc1ccc(-n2nc(C(=O)O)c3ccccc3c2=O)cc1C	9%	21	-29	-2.6	2
COc1cccc(C(=O)/C=C/c2ccc(SC)cc2)c1	6%	-7	-12	9.7	99
Cc1cc(-n2cnc(-c3cn[nH]c3C)n2)no1	1%	·	·	0.7	-2
C/C(=N\NC(=O)c1ccccc1)c1ccc(C)c([N+](=O)[O-])c1	-2%	-8	-24	0.3	4
